PINK1 expr mod: modulators of PINK1 expression; Potency, µM (series often up to 76.6 µM), for inactives: at the top dose activation (PINK1 increase), usual class: activators; hit rate 0.2% among 410,000; PINK1 immunofluorescence, high-content cytometry, 24 h; active = well fitted activation curve with a large enough effect; inconclusive = small, poorly fitted or top-dose-only effect; inactive = flat fitted curve, though single readings scatter; cell line not stated here;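 also: potency is read from the fitted curve at half-maximal effect; % of control where 0% means no effect; nearly all actives have a fitted effect of over 65% in size; a mitochondrial uncoupler was the plate control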
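Fluorescence from anti-PINK1 antibody, together with nuclear and cell stains, was scanned on a laser-scanning cytometer. Before staining, stable-line cells were incubated 24 hours with compounds at 5 concentrations; primary antibody 12 h at 10 degrees C.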
gsp antagonist: gsp mutant antagonism; gsp-mutant cells, cAMP HTRF, 30 min; control for the full effect not named in the record; AID 624288; Potency, µM (highest dose often 76.9 µM), without a hit: at the highest dose activity change, negative = inhibition, hits mostly inhibitors; hit rate 0.4% among 340,000; active = falling curve of any shape with a large fitted effect; inconclusive = falling curve, mostly with a smaller effect; inactive = flat or rising curve; cell line not stated here;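 also: intracellular cAMP measured with PDE inhibitor Ro 20-1724 present during compound exposure; potency is read from the fitted curve at half-maximal effect; % is scaled to controls: 0 for no effect and ±100 for the full control effect; nearly all actives have a fitted effect of over 65% in size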
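Cells in G418 medium, seeded 16-24 h, 37C; buffer exchange to DPBS + 1 mM CaCl2, 0.5 mM MgCl2, 0.05% BSA; cpds in DMSO + […] (300 uM stock), 30 min 37C; HTRF cAMP detection.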
ClpP mod: qHTS Assay for Activators of ClpP | purified B. subtilis ClpP, FRET peptide cleavage, 20 min | ATP-dependent Clp protease proteolytic subunit (Bacillus subtilis (strain 168)), P80244 | Potency, µM (highest dose often 57.5 µM), for inactives: top-dose activity change, negative = active | hit rate 1.9% among 340,000 | AID 651965, 2013; active = well fitted falling curve with a large enough effect; inconclusive = small, poorly fitted or top-dose-only effect; inactive = no such curve, though single readings can be large or run the other way; also: potency is read from the fitted curve at half-maximal effect; the source files actives as falling curves though it sought activators and does not explain the sign; nearly all actives have a fitted effect of over 65% in size; many hits overshoot -100%
Target sequence (P80244 whole entry, looked up): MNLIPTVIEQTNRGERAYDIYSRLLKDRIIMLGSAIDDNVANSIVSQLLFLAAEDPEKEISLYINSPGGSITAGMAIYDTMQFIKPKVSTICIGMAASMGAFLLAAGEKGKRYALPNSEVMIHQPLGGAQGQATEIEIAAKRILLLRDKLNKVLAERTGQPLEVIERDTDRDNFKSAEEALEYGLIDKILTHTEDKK
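FRET quenching reversal measured ClpP activation: 10 microg/mL B. subtilis ClpP at pH 8 with the FRET-FV decapeptide, read at 430 nm after 320 nm excitation. The 20-min minus 0-min signal was scaled between DMSO/no-enzyme wells and ADEP (5.8 microM final).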
Sfp PPTase inh: inhibitors of Bacillus subtilis Sfp phosphopantetheinyl transferase; hit rate 3.5% among 310,000; Q9F4F7; Potency, µM, without a hit: max response, negative = inhibition, hits mostly inhibitors; Biochemical Sfp PPTase activity, qHTS; active = well fitted inhibition curve with a large enough effect; inconclusive = small, poorly fitted or top-dose-only effect, or another doubt; inactive = no such curve, though single readings can be large or run the other way;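 also: the enzyme is Sfp with the accession as filed and its product quenches rhodamine fluorescence; potency is read from the fitted curve at half-maximal effect; 0% = enzyme reaction without inhibitor and -100% = no enzyme wells; top concentration of the series not given in the record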
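Compounds were incubated with enzyme (final 15 nM) for 15 min at room temperature before substrate addition started the reaction. Fluorescence at 525 nm excitation, 598 nm emission was recorded immediately and after 30 minutes.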
Menin-MLL FL inh: menin-MLL binding inhibition, fluorescein peptide; 290,000 tested, under 10 active; FP activity change, % at 61.4 µM; Fluorescence polarization, fluorescein-MLL peptide displacement from menin; inconclusive = falling polarisation curve, or a change in total fluorescence; inactive = total fluorescence flat and polarisation flat or rising; no compound was filed as active; the % refers to the polarisation; negative = inhibition;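 also: % of control where 0% means no effect; inhibitors lower the polarisation; unlabelled MLL peptide was the positive control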
gsp ag: agonists of gsp mutant (McCune-Albright syndrome) | gsp mutant cells, cAMP HTRF, 30 min; control for the full effect not named in the record | Potency, µM (doses to about 76.9 µM), for inactives: top-dose activation (cAMP increase), usual class: activators | hit rate 0.13% among 340,000 | AID 624287; active = well fitted activation curve with a large enough effect; inconclusive = small, poorly fitted or top-dose-only effect, or another doubt; inactive = no such curve, though single readings can be large or run the other way; cell line not stated here;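 also: phosphodiesterase inhibitor Ro 20-1724 added with compounds to block cAMP breakdown; potency is read from the fitted curve at half-maximal effect; nearly all actives have a fitted effect of over 60% in size; about a fifth of the inactives were tested at one dose only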
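Cells stably selected in G418 were plated at 2000/well, grown 16-24 hr, then given compounds in DMSO with the PDE inhibitor […] (300 uM solution added) for 30 min at 37C; cAMP was read by HTRF.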
D2 agonist: agonists of human D2 dopamine receptor (beta-arrestin). hit rate 0.084% among 360,000. activation, % (test concentration not listed). DiscoveRx PathHunter D2 beta-arrestin, luminescence, 90 min; 100% = 57 uM dopamine signal. P14416; in the data active = activation above about 40%; inconclusive = about 15% to 40%; inactive = below about 15%; also: compound concentration not given in the record; the text of the record calls up to 30% inactive
Target sequence (P14416 whole entry, looked up): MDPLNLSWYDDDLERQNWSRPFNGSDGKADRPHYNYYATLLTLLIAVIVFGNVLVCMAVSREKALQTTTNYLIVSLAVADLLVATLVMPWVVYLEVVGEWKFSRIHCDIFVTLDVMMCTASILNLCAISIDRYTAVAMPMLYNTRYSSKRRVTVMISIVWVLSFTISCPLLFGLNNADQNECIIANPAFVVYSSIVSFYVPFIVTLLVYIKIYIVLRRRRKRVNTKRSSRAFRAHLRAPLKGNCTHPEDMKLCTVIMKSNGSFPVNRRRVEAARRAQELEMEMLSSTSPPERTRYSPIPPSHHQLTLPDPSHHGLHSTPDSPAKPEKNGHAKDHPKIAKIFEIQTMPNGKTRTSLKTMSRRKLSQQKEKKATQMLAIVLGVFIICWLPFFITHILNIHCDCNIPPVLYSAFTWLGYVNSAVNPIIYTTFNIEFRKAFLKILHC
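DiscoveRx PathHunter D2 beta-arrestin cells (2,100/well) attached overnight, then compound-stimulated 90 min at 37 C in HBSS/10 mM HEPES/0.1% Tween-20 buffer; beta-galactosidase complementation read by luminescence after 1 h at ambient temperature. Dopamine 57 uM final (EC100) as control.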
* hit, by the source's call; u = inconclusive; x = not tested or not shown; & = joins results of further samples; [ ] = another dose, or the depositor's remark.

Value order: D2 agonist | gsp ag | gsp antagonist | Menin-MLL FL inh | ClpP mod | PINK1 expr mod | Sfp PPTase inh
O=c1cc(-c2ccc(O)cc2)oc2c(C3OCC(O)C(O)C3O)c(O)c(C3OC(CO)C(O)C(O)C3O)c(O)c12 (stereo unspecified)
→ 1.6 | -17% | -5% | 2.1 | -3.1% | 1.1% | -7%
NC(=O)C1CCCN1S(=O)(=O)c1ccc2ccccc2c1 (stereo unspecified)
→ 0.1 | -4% | -14% | x | -4.0% | -0.8% | 23%
COc1ccccc1/C=N/NC(=O)c1cccc2ccccc12
→ -7.2 | -4%[15.4 µM] | 1% | -4.8 | 0.1% | 3.4% | 13%
CCOc1ccc(/C(=N\O)C(C)NO)cc1 (stereo unspecified)
→ 1.6 | -26% | -3% | -0.8 | -2.6% | x | 6%
Cc1cc(NC(=O)CCC(=O)N(c2ccc(F)cc2)C(C(=O)NC2CCCC2)c2cccnc2)no1 (stereo unspecified)
→ -4.5 | -5%[15.4 µM] | 9% | x | 0.2% | 2.1% | 10%
Cc1csc2nc(CSc3nc4ccccc4o3)cn12
→ -1.2 | -17% | 2% | 5.1 | 1.8% | 1.0% | 56µM*
CCOC(=O)N1CCN(C(=O)CSc2nc(=O)n3ccccc3n2)CC1
→ -4.6 | u | 21% | x | 27% | 2.7% | x
COc1cc(O)c(C(CCN2CCCC2)c2cc(OC)c(OC)c(OC)c2)c(OC)c1 (stereo unspecified)
→ 0.3 | x | 6% | 12&9.1 | -0.4% | -0.3% | 9%&5%
CCOC(=O)N1CCN(c2ncnc3c2[nH]c2ccc(F)cc23)CC1
→ 5.4 | -29% | u | 2.1 | u | 2.7% | 19%
Cc1cc2nc(-c3ccccc3)c(CC(C)(C)C)n2c(C)c1Br
→ -3.4 | x | x | x | -3.1% | u | x

Carrying on:
Value order: D2 agonist | gsp ag | gsp antagonist | Menin-MLL FL inh | ClpP mod | PINK1 expr mod | Sfp PPTase inh
COc1cc(C(C)=O)ccc1OCCCOc1cccc2cccnc12
→ -1.6 | 2% | 9% | 6.7 | x | -1.6% | 5%
O=C(NCCC1=CCCCC1)C1CCN(S(=O)(=O)N2CCCC2)CC1
→ -1.7 | 19% | 4% | -0.2 | -0.2% | -1.4% | 6%
CSc1nnc(-c2sc(-c3ccccc3)nc2C)n1C
→ -2.3 | -14% | 9% | 3.2 | 25µM* | 1.0%[38.3 µM] | 3%
CC(C)[C@H](NC(=O)OCc1ccccc1)C(=O)OCC(=O)N1CCCCC1
→ -0.5 | -6% | -15% | x | x | 1.7% | x
OCC1OC(n2cnc3c(SCc4ccccc4)ncnc32)C(O)C1O (stereo unspecified)
→ -0.4 | 7% | 13% | x | -3.8% | -0.1% | x
CN1C(=O)C(CC(=O)Nc2ccc(F)cc2)N(NC(=O)c2cccc(F)c2)C1=S (stereo unspecified)
→ -4.1 | -16%[15.4 µM] | -1% | 3.2 | -1.3% | -3.2% | 6%
O=C(COC(=O)Cc1cccc(C(F)(F)F)c1)NC1CC1
→ -6.2 | 25% | 8% | -0.5 | -1.2% | 0.1% | 21%
COc1ccc(OCC(=O)Nc2ccc(NC(=O)c3ccccc3Cl)c(OC)c2)cc1
→ 1.9 | -11% | -30% | x | -3.0% | 1.7% | 8%
COc1ccc(NC(C)C(=O)Nc2ccc(C(C)(C)C)cc2)cc1Cl (stereo unspecified)
→ -1.4 | -64%[inhibitor] | -20% | 1.0 | -0.3% | 29% | 12%
CCOc1ccc(NC(=O)C(=O)NCCCn2ccnc2)cc1
→ -0.8 | u | 3% | 2.7 | 1.5% | 3.5%[38.3 µM] | 2%

(listing goes on)
Value order: D2 agonist | gsp ag | gsp antagonist | Menin-MLL FL inh | ClpP mod | PINK1 expr mod | Sfp PPTase inh
CCc1ccccc1NC(=O)C1CCCN(c2ncccn2)C1 (stereo unspecified)
→ -0.2 | 41% | 11% | 1.2 | x | 1.0% | -1%
CC(=O)Nc1ccc(NC(=O)C(C)OC(=O)CCCN2C(=O)c3cccc4cccc(c34)C2=O)cc1 (stereo unspecified)
→ 1.2 | u | 7% | x | u | -1.4% | x
O=S(=O)(Nc1ccc(N2CCOCC2)cc1)c1c(F)cc(F)cc1Br
→ -4.3 | 15%[15.4 µM] | -6% | 0.2 | -20% | 2.8% | 6%
C/C(=N\NC(=O)c1ccc(CN2CCOCC2)cc1)c1ccc(NC(=O)c2ccccc2)cc1
→ 5.8 | -1% | -3% | -1.9 | x | 5.6% | 10%
Cc1ccc(S(=O)(=O)c2nc(S(C)(=O)=O)sc2N2CCC3(CC2)OCCO3)cc1
→ 1.1 | u | -11% | 1.8 | 0.3% | 0.0% | 4%
COCCNC(=O)c1ccc2c3n(nc2c1)-c1ccc(Cl)cc1CO3
→ -1.2 | -8% | -7% | 0.6 | u | -0.6% | 2%
O=C(N=Nc1c(O)[nH]c2ccccc12)c1cc(NS(=O)(=O)c2cccs2)cc(NS(=O)(=O)c2cccs2)c1
→ 1.8 | 5%[15.4 µM] | -47% | -1.5 | x | 5.1% | -5%
COC(=O)c1[nH]c2ccccc2c1NC(=O)CN1CCN(C(=O)c2ccco2)CC1
→ u | 2% | -3% | 2.6 | -29% | -0.3% | 21%
CN(C)S(=O)(=O)c1ccc2nnn(O)c2c1
→ -1.4 | -3%[15.4 µM] | -1% | 1.6 | -0.9% | 0.0% | -5%
Cc1ccc(O)c(NC(=O)C2CC(c3c(F)cccc3Cl)=NO2)c1 (stereo unspecified)
→ 4.4 | u | -8% | 0.2 | -1.3% | x | -9%

Entries of single compounds, looked up by structure. Order of screens: D2 agonist, gsp ag, gsp antagonist, Menin-MLL FL inh, ClpP mod, PINK1 expr mod, Sfp PPTase inh
`CN(C)S(=O)(=O)c1ccc2nnn(O)c2c1` is entered as -1.4, -3%[15.4 µM], -1%, 1.6, -0.9%, 0.0%, -5%
`Cc1ccc(O)c(NC(=O)C2CC(c3c(F)cccc3Cl)=NO2)c1` (stereo unspecified) is entered as 4.4, u, -8%, 0.2, -1.3%, x, -9%

Next section
Value order: D2 agonist | gsp ag | gsp antagonist | Menin-MLL FL inh | ClpP mod | PINK1 expr mod | Sfp PPTase inh
O=C1CCC(C(=O)N2CCCCO2)CN1Cc1cccc(F)c1 (stereo unspecified)
→ 0.7 | u | 0% | 2.5 | -2.3% | 0.1% | 21%
CC[n+]1c(/C=C2\Sc3ccccc3N2C)ccc2cccc(C)c21
→ -5.8 | -2%[15.4 µM] | -28% | u | 0.6% | -0.2% | u
Nc1ccc2c(c1)C/C(=C/c1ccco1)C2=O
→ 0.0 | 21% | -9% | u | 14µM* | 2.5% | -65%
O=C(Nc1cccc2c1CCCC2)c1cc([N+](=O)[O-])ccc1Cl
→ -2.2 | u | -15% | 1.0 | 0.4% | -1.9% | 11%
COc1ccccc1CNC(=O)CN1C(=O)NC(C)(c2ccc(C)cc2)C1=O (stereo unspecified)
→ -0.6 | 2%[15.4 µM] | 3% | -2.1 | x | 0.3% | -6%
Cc1ccc(NC(=O)CSc2ccc(-c3cccnc3)nn2)c(C)c1
→ 0.5 | -2% | -4% | 2.4 | -2.7% | -0.2% | 14%
CCOC(=O)c1cnc(=O)[nH]c1C
→ -0.9 | 8% | 21% | -2.4 | 1.7% | -0.1% | 9%
COc1ccccc1C(=O)NC(=O)COC(=O)CNC(=O)c1ccc(Cl)c([N+](=O)[O-])c1
→ -1.2 | -6%[15.4 µM] | -9% | x | x | -2.7% | x
CCN(C(=O)Cn1c(=O)oc2ccccc21)c1cccc(C)c1
→ -4.0 | -24% | 5% | -15 | x | -0.7% | -1%
COc1ccccc1C1C(C(N)=O)=C(C)Nc2nc(CCCO)nn21 (stereo unspecified)
→ -1.7 | 17%[15.4 µM] | 9% | 0.1 | x | -1.9% | 8%

Continuation.
Value order: D2 agonist | gsp ag | gsp antagonist | Menin-MLL FL inh | ClpP mod | PINK1 expr mod | Sfp PPTase inh
COc1ccccc1/C=C(/C(=O)NCCCn1ccnc1)c1ccccc1
→ -5.6 | -3% | -12% | -1.7 | 1.0% | 2.9% | 8%
CC(C)CCn1c(=O)c2ccccc2n2c(CN3C(=O)NC4(CCC(C)CC4)C3=O)nnc12 (stereo unspecified)
→ -1.6 | 0% | -7% | -1.2 | -27% | 1.6% | 4%
COCCCNC(=O)c1ccc2c(=O)n(Cc3ccc(OC)cc3)c(=O)[nH]c2c1
→ -0.8 | -15% | -1% | 0.5 | -6.5%&-9.6% | 2.6%&2.2% | 13%
CNc1ccccc1C(=O)OC(C)C(=O)Nc1ccc(Cl)cn1 (stereo unspecified)
→ -0.2 | -33%[inhibitor] | 2% | -2.2 | 25µM* | 2.0% | -18%
CCOC(=O)N1CCN(C(=O)C2CCN(S(=O)(=O)c3cc(Cl)ccc3OCC)CC2)CC1
→ -6.1 | -13% | -19% | -1.8 | -0.8% | 4.0% | 16%
CC(=O)Nc1c(NC(=O)CC#N)[nH]c2c(c1=O)c(=O)n(C)c(=O)n2C
→ -5.8 | 0% | 6% | 20 | x | 1.2% | u
COc1ccc(F)cc1C(=O)C1CCCN(C(=O)c2cccc(N(C)C)c2)C1 (stereo unspecified)
→ -2.2 | -23% | u | 0.3 | 0.9% | 3.3% | 11%
CC(C)(C)OC(=O)N1Cc2ccccc2C[C@H]1C(=O)NCC(=O)NC1CCCCC1
→ 1.7 | 36% | 1% | x | -2.8% | -0.1% | 13%
COc1ccc(Cl)cc1NC(=O)CN(C)C(=O)c1ccc(OCc2ccccc2)c(OC)c1
→ -4.7 | 0% | u | x | -5.4% | -1.6% | x
COCCN1Cc2cccc(C(=O)Nc3ccc4c(c3)OCCO4)c2C1=O
→ 5.8 | -1% | -18% | -0.4 | 1.3% | 1.3% | 3%
C=CCn1c(SCC(=O)NC2CCCC2)nnc1-c1cccnc1
→ -6.4 | -38% | -8% | 0.6 | 1.9% | 0.3% | -12%
Cc1cccc(NC(=O)CSc2nc3ccc(N4C(=O)c5ccccc5C4=O)cc3s2)c1C
→ 0.6 | -60%[inhibitor] | -3% | 4.8 | 0.5% | 2.4%[38.3 µM] | 3%

Bioassay records as filed in PubChem.
